Bioassay records (PubChem)
NPR1 antag = blocks ANP-stimulated signaling of human Npr1 receptor; P16066; Potency, µM (doses to about 46.3 µM), inactives show at the top dose activity change, negative = inhibition, actives largely listed as inhibitors; HEK293 hNpr1 GloSensor cGMP, ANP-stimulated luminescence; hit rate 1.6% among 76,000; active = well fitted inhibition curve with a large enough effect; inconclusive = small, poorly fitted or top-dose-only effect; inactive = no such curve, though single readings can be large or run the other way;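 also: nearly all actives have a fitted effect of over 60% in size; nearly all hits also lower the signal before the agonist is added; a reference antagonist and vehicle were the controls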
Target sequence (P16066 whole entry, looked up): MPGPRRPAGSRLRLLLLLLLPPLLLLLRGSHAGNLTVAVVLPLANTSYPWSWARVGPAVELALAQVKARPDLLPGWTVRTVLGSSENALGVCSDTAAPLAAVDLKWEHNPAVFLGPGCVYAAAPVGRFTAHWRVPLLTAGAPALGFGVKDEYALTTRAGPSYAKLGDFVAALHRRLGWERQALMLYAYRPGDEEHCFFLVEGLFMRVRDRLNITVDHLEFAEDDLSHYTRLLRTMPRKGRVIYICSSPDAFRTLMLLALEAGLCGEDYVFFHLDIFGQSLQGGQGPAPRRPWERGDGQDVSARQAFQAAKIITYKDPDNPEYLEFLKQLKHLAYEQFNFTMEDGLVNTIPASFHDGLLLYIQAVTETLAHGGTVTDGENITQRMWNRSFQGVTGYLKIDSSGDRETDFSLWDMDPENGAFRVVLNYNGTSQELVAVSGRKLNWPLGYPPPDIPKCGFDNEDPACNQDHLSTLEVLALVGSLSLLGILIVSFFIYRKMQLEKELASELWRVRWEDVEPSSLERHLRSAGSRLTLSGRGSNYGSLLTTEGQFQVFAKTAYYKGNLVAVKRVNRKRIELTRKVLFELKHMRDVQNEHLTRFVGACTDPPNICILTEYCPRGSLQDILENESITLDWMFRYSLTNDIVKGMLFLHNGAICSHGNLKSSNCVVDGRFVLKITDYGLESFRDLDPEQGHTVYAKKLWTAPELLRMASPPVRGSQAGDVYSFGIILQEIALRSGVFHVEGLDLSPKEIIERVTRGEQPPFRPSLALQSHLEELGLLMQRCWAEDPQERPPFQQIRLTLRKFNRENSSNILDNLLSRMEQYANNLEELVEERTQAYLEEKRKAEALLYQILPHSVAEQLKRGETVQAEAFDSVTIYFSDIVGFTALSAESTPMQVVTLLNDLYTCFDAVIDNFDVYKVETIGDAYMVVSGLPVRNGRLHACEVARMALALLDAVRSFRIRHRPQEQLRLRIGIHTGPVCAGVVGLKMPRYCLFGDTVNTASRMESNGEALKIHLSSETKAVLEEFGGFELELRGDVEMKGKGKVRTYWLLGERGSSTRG
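Compound pre-incubated 30 min at room temperature on GloSensor-loaded HEK293 cells stably carrying hNpr1 and the pGS-40F cGMP biosensor. Stimulation uses hNppA at 0.1 nM final; luminescence is taken at baseline and 20 min post-agonist.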
* = called active by the depositor; ? = inconclusive; [ ] = dose if it differs, or a comment. % is scaled to controls: 0 for no effect and ±100 for the full control effect; potency is read from the fitted curve at half-maximal effect. This is a subset (hit frequency here may not be typical).

molecule | NPR1 antag
Cc1ccc(CN2CCCN(S(C)(=O)=O)C(c3ccccc3)CC(=O)NCC2)o1 (stereo unspecified) | 0%
COc1ccc(NC(=O)c2cnc3c(c2)N(C(=O)Cc2ccc(O)cc2)CCC3)cn1 | -1%[70.6 µM]
Cc1ccc(C2=NC3(CCN(C(=O)c4cccs4)CC3)ON2)cc1 | -12%
Cc1noc(CC2CCN(C(=O)C(C)Oc3ccc4ccccc4c3)CC2)n1 (stereo unspecified) | ?
O=C(CCC[C@H]1NC[C@@H]2C[C@H]1CN(Cc1ccccc1)C2)N1CCN(C2CCCC2)CC1 | -8%
Cn1cc(Cl)cc1C(=O)N1CCC2(CCCN(C3CCCC3)C2=O)C1 (stereo unspecified) | 0%
CCn1ccc(C(=O)N2CCN(C(=O)N3CC4CC(C3)[C@H]3CCCC(=O)N3C4)CC2)n1 (stereo partly specified) | 3%
COc1ccc(-c2nc(Cn3c(-c4cccc(Cl)c4)nc(C)c(CCO)c3=O)c(C)o2)cc1 | -3%
CC1(COCC2CC2)COc2ccc(C(=O)Nc3cccc([S+](C)(=O)[O-])c3)cc2N1 (stereo unspecified) | -21%[70.6 µM]
CCC(c1cccs1)N1C(=O)[C@H]2CN(S(=O)(=O)c3ccc(C)c(C)c3)C[C@H]2C1=O (stereo partly specified) | -12%
CN1CCN(C(=O)N2CCCCC2)CC12CCC(=O)N(CC(=O)O)CC2 (stereo unspecified) | 1%
Cc1ccc2nc(C)cc(C(=O)N3CCC(c4cc(CC(=O)O)[nH]n4)CC3)c2c1 | 4%
O=C(Cn1ccn2nc(-c3ccc(F)cc3)c(CO)c2c1=O)NCCCc1ccccc1 | 1%
Cc1nc(CN2CCN(c3ncc(F)c(N(C)C)n3)CC2)cs1 | -4%
NC(=O)[C@@H]1CCCN1CC[C@H]1CN(C(=O)C2CCCCC2)CC[C@H]1CC(=O)O | 1%[70.6 µM]
CC(C)CNC(=O)c1cccc2c1CCN2C(=O)c1ccc(F)cc1 | -3%
COc1ccc(CNC(=O)c2cc(NC(C)=O)cc3nc(C)ccc23)c(OC)c1 | -1%
O=C(NCCc1cccs1)C1CCN(C(=O)c2ncn3c2COC(c2ccccc2)C3)CC1 (stereo unspecified) | -7%
Cc1cc(C)n2nc(CC(=O)NCc3cc(-c4ccco4)on3)nc2n1 | 7%
CCc1nc(-c2c3n(c(=O)n(CC(N)=O)c2=O)CCCCC3)no1 | -1%
CN1c2ncccc2CN(Cc2ccccc2O)CC[C@H]1CO | 0%[70.6 µM]
COc1ccc(-c2nnc(C[C@@H]3C[C@@H](C(C)C)[C@H](CN4CCN(c5ncccn5)CC4)C=C3C)o2)cc1 | -27%
Cc1cn2nc(C(=O)NCC3CCCCC3)cc2c(=O)[nH]1 | 0%
CCOCCn1c(=O)[nH]c2cc(C(=O)NCCc3ncccc3C)ccc21 | -17%
Cc1cnc(C(=O)N[C@@H]2CCC[C@@H]2C(=O)N2CCN(c3ccccn3)CC2)cn1 | 0%
Cc1ccccc1CNC(=O)c1cc2cn(C(C)C)cc2s1 | -15%
O=C(c1ccoc1)N1CCC(n2cc(-c3nc(C4CC4)no3)nn2)C1 (stereo unspecified) | 0%
Cc1nc2ccc(C(=O)N3CCSCC3)cc2nc1C | 0%
O=C([C@@H]1C[C@H](Oc2cccnc2)CN1S(=O)(=O)c1cccs1)N1CCCC1 | 8%
O=C(c1ccc(C2CCCNC2)cc1)N1CCC(N2CCCCC2)CC1 (stereo unspecified) | 7%

Four structures from above, sorted by length of the SMILES, largest number first:
molecule | NPR1 antag
NC(=O)[C@@H]1CCCN1CC[C@H]1CN(C(=O)C2CCCCC2)CC[C@H]1CC(=O)O | 1%[70.6 µM]
COc1ccc(NC(=O)c2cnc3c(c2)N(C(=O)Cc2ccc(O)cc2)CCC3)cn1 | -1%[70.6 µM]
CC(C)CNC(=O)c1cccc2c1CCN2C(=O)c1ccc(F)cc1 | -3%
Cc1ccccc1CNC(=O)c1cc2cn(C(C)C)cc2s1 | -15%

(further entries)
molecule | NPR1 antag
CC(C)CN1CCN(C2CCOC3(CCN(C(=O)c4cccs4)CC3)C2)CC1 (stereo unspecified) | 1%
Cc1cccc(N2CCN(CC(=O)N3C[C@@H](C)[C@](O)(C4CCC4)C3)CC2)c1 | 0%
CC1(c2ccccc2)N(Cc2ccccc2C#N)C(=O)OC12CCN(Cc1c[nH]c3ccccc13)CC2 (stereo unspecified) | ?
CCn1cnnc1-c1nn(C)c2c1CN(C(=O)Cc1cccc(F)c1)CC2 | -2%
O=C(Cc1ccsc1)NCCc1noc(-c2ccccc2)n1 | 4%
CN(Cc1cccc2cnccc12)C(=O)COc1ccc(Cl)cc1Cl | ?
CC1=C[C@@H](CNC(=O)CCCC(=O)O)[C@H](C(C)C)C[C@H]1Cc1nc2ccc(F)cc2[nH]1 | 6%[70.6 µM]
CCc1nc2c(c(-c3ccc(O)cc3)n1)CCN(Cc1ccc(OC(F)(F)F)cc1)CC2 | -27%
CCc1nc2c(c(-c3ccc(Cl)cc3)n1)CN(Cc1ccsc1)CC2 | -2%
O=C([C@@H]1C[C@H](F)CN1C(=O)c1ccccc1)N1CCCCC1 | 3%
c1cc(Cn2ccc3c(N4CCOCC4)nc(-c4cn[nH]c4)cc32)ccn1 | -7%[70.6 µM]
COCCCNC(=O)c1csc(N2CCN(c3ccccc3)CC2)n1 | 2%
CN(CC1(C)CCOCC1)C(=O)c1ccco1 | 2%
c1ccc(Oc2ccc(Nc3cnc4ccc(N5CCOCC5)nn34)cc2)cc1 | ?
Cc1nccn1Cc1nnc(C2CCCN(CC3CCC3)C2)n1C (stereo unspecified) | 3%
COCc1cn(C[C@H]2C[C@@H](NC(=O)c3cc(C)n(C)n3)[C@H](O)[C@@H]2O)nn1 | 9%
CNC(=O)c1cc(-c2cccc(NC(C)=O)c2)cc2c1OCCN2Cc1cccnc1 | -3%[70.6 µM]
CCCc1nc(C(=O)N2CC[C@H](CO)[C@H](O)C2)cs1 | 4%
COc1ccc(-c2cc(CNc3ncncn3)no2)cc1 | ?
CCc1cc(CN2CCCC(C(=O)Nc3ccc(-n4ccnc4C)cc3)C2)on1 (stereo unspecified) | -1%
C=CCNC(=O)C(NC(=O)c1ccc(OC)cc1)C1CCN(C(=O)CCc2ccccc2)CC1 (stereo unspecified) | -7%
Cc1cccc(C(=O)N2CCCC(n3cc(-c4nc(C(C)C)no4)nn3)C2)c1 (stereo unspecified) | -15%
COc1ccc(C(=O)N2CCCCCCNC(=O)CC2)cc1 | -3%
Cc1ccc(OCCC2CCN(C(=O)Cn3cnc4c3c(=O)n(C)c(=O)n4C)C2)cc1 (stereo unspecified) | -17%
Cc1cccc(-n2nc(-c3c(C)nc4scc(CC(=O)NC5CC5)n4c3=O)cc2C)c1 | -11%
CC(=O)Nc1cccc(-c2cc3c(ccn3C)c(C(=O)NCc3c(C)cc(C)[nH]c3=O)n2)c1 | 4%
COc1ccc(NC(=O)Cn2c(N3CCN(c4ccccc4)CC3)nc(C)cc2=O)cc1OC | -4%
CCN1C(=O)COC[C@@H]1[C@H](O)c1ccc(NC(=O)c2cccnc2)cc1 | 2%[70.6 µM]
COc1ccc2[nH]c3c(c2c1)CCN(C)C31CCN(C(=O)C2CC2)CC1 | 3%
O=C1CCCN1CCCN1C(=O)[C@@H]2C[C@@H](O)CN2C2(CN(C3CCOCC3)C2)C1=O | 7%[70.6 µM]
Cc1noc(CN(C)C(=O)c2ccc3oc(Cc4ccc(Cl)cc4)nc3c2)n1 | 2%
CCn1nccc1C(=O)N1CCC2(CC1)N(C)C(=O)CS2(=O)=O | -15%
COc1ccc(C(=O)N2CCn3c(nnc3C3CC3)C2)cc1 | 0%[70.6 µM]
COC(=O)c1ccc(NC(=O)N2CCn3nnc(CCC(=O)N4CCCC4)c3C2)cc1 | 1%
CC(=O)Nc1ccc(NC(=O)Cn2cccc2-c2nc(-c3ccccc3)no2)cc1 | 2%
COC[C@@H]1[C@H](NC(=O)c2cnc(-c3cccnc3)nc2C)[C@@H]2CCO[C@H]12 | 2%
COc1ccc(CNc2nccc(-c3c(C)nn(C)c3C)n2)cc1OC | -14%
Cc1ccc(CN2CCC(N3CC(OCC4CC4)C34CCOCC4)CC2)cc1C (stereo unspecified) | -18%
CC(C)CCNC(=O)N1CC(c2nnc(-c3ccncc3)o2)C2(CCOCC2)C1 (stereo unspecified) | 5%
CCn1nccc1C(=O)N1CCc2nc(OCCOC)ccc2C1 | -28%
CN1C(=O)c2cccn2CC1C(=O)NCc1cccc(C(F)(F)F)c1 (stereo unspecified) | 3%
CN1CCC(NCC2(COc3cccnc3)C[C@@H](O)[C@@H](O)C2)CC1 (stereo partly specified) | 3%[70.6 µM]
CN(CCO)c1ccc(-c2nc(CCCc3ccccc3)no2)cn1 | 0%
COc1cccc(CC(=O)NCC(=O)N2CCCCCNC(=O)CC2c2ccccc2)c1 (stereo unspecified) | 2%
O=C(NCC1Cn2cccc2C(=O)N1Cc1cccnc1)c1n[nH]c(=O)c2ccccc12 (stereo unspecified) | -2%

Compounds shown so far that contain two or more sulfur atoms, in the order listed:
molecule | NPR1 antag
CCC(c1cccs1)N1C(=O)[C@H]2CN(S(=O)(=O)c3ccc(C)c(C)c3)C[C@H]2C1=O (stereo partly specified) | -12%
O=C([C@@H]1C[C@H](Oc2cccnc2)CN1S(=O)(=O)c1cccs1)N1CCCC1 | 8%

Next part:
molecule | NPR1 antag
Cn1cccc1C(=O)NC1CCc2nnc(C3CC3)n2CC1 (stereo unspecified) | -8%
CCOc1ccc(C2Cn3nnc(-c4nc(-c5cccc(C)c5)no4)c3CO2)cc1 (stereo unspecified) | -2%
COc1ccc(C(=O)N2CCCOCCNC(=O)[C@@H]3CCCC[C@@H]32)cn1 | 0%
CCOc1cc(-c2nc3ccc(-c4ccc(OC)c(OC)c4OC)cc3o2)ccc1OC | 0%
COc1ccc(CN2CCC(O)(CN3CCCCC3)C2)cc1Cl (stereo unspecified) | 2%
Cn1cccc1CN1CCC2(CC1)CC(=O)Nc1ccccc1O2 | 6%[70.6 µM]
O=C(c1cnn2ccccc12)N1CCCC(c2nccn2Cc2ccncc2)C1 (stereo unspecified) | 14%
CC(=O)N1CCNc2cc(-c3ccc(Oc4ccccc4)cc3)ncc2C1 | -19%[70.6 µM]
COc1ccc(CCC(=O)N[C@@H]2CN(S(C)(=O)=O)C[C@H]2CN(C)C)cc1 | 10%
O=C(O)COCC(=O)N1Cc2[nH]cnc2C[C@H]1c1nc(Cc2ccccc2)no1 | 23%[70.6 µM]
O=C(Cn1nc2n(c1=O)CCCCC2)NCc1ccc2c(c1)OCO2 | -2%
CC(O)C(=O)N1CCc2[nH]nc(C(c3ccccc3)c3ccccc3)c2C1 (stereo unspecified) | 7%
COCC(=O)NC1CCC12CCN(C(=O)NC(C)C)CC2 (stereo unspecified) | -1%
COC[C@@H]1CN(C(=O)c2cccc(C)n2)C[C@H]1c1ccccn1 | 3%
O=C(CCc1ccccc1)N1CC(c2noc(COc3ccccc3)n2)C1 | -26%

Single values from the entries so far.
NPR1 antag, Cn1cccc1CN1CCC2(CC1)CC(=O)Nc1ccccc1O2 stands at 6%[70.6 µM]
NPR1 antag, COCC(=O)NC1CCC12CCN(C(=O)NC(C)C)CC2 (stereo unspecified) stands at -1%
NPR1 antag, CC(=O)N1CCNc2cc(-c3ccc(Oc4ccccc4)cc3)ncc2C1 stands at -19%[70.6 µM]
NPR1 antag, CC(O)C(=O)N1CCc2[nH]nc(C(c3ccccc3)c3ccccc3)c2C1 (stereo unspecified) stands at 7%

The list goes on:
molecule | NPR1 antag
CNC(=O)CCn1ncc2cc(OC3CCc4cccc(-c5ccccc5)c43)ccc21 (stereo unspecified) | -24%[70.6 µM]
CNCCN1C(=O)CC[C@H]2CN(C(=O)c3cnc4nc(C)[nH]n4c3=O)CC[C@H]21 | 3%
COCC(=O)NC[C@H]1CCN(Cc2ccc(C)s2)C[C@H]1N(C)C | 5%
CN(C1CCCc2ccccc21)S(C)(=O)=O (stereo unspecified) | -4%[70.6 µM]
O=C(Nc1ccc(Oc2ccccc2)cc1)O[C@@H]1CO[C@H]2[C@@H]1OC[C@@H]2NS(=O)(=O)c1ccc2ccccc2c1 | ?
Cc1noc(-c2cn(C3CCN(C(=O)c4cccc(F)c4)C3)nn2)n1 (stereo unspecified) | -3%
CCOc1ccc(NC(=O)c2ccc3c(c2)N(C)C2CCCCCN2C3=O)cc1 (stereo unspecified) | -3%
O=C(N[C@H]1[C@H](O)[C@H](O)C[C@@H]1c1cncnc1)c1ccc(C(F)(F)F)cc1 | 9%[70.6 µM]
O=C(NC1CCc2ccccc21)c1cc(COc2ccc3c(c2)OCO3)[nH]n1 (stereo unspecified) | 5%
O=C(CCC1CCN(Cc2cnc[nH]2)CC1)NC1CCN(Cc2ccccc2)C1 (stereo unspecified) | 7%
CSCC(=O)N1CCC2(CC1)CC(c1ccccc1)CN(C)C2 (stereo unspecified) | 5%
CCn1nccc1C(=O)N1CCC2(CC1)CC(c1nc(C)no1)N(C)C2 (stereo unspecified) | 4%
CC(C)c1noc(CC2CCN(C(=O)c3ccccc3Cl)CC2)n1 | -28%
CCN1c2cc(C(=O)NCc3ccc(F)cc3F)ccc2C(=O)N2CCCCCC21 (stereo unspecified) | -12%
CCn1c(C)c(CN2CCc3nc(N(C)C)[nH]c(=O)c3CC2)c2ccccc21 | 4%
COc1ccc(-c2cc(-c3c(C)noc3C)c3cncn3c2)cn1 | 1%[70.6 µM]
O=C(c1ccoc1)N1CC[C@@H](c2ccc3ccccc3c2)[C@H](O)C1 | -2%
Cc1ccc(CNC(=O)N2CCCCCNC(=O)CC2c2ccccc2)cc1 (stereo unspecified) | 1%
